Source: PubChem (several laboratories)
GALR2 agonist – GALR2 receptor agonists, primary screen, cell-based; GALR2-expressing cells, agonist activation read-out; activation, %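 (tested at 5 µM)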; actives 0.48% (n = 140,000); AID 803, 2007;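 active = above mean plus 3 SD of all compounds, about 5% in these data, not always enough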;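 note: 0% = vehicle buffer wells and 100% = reference agonist at full effect; tested in CHO reporter cells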
Target sequence (O43603 whole entry, looked up): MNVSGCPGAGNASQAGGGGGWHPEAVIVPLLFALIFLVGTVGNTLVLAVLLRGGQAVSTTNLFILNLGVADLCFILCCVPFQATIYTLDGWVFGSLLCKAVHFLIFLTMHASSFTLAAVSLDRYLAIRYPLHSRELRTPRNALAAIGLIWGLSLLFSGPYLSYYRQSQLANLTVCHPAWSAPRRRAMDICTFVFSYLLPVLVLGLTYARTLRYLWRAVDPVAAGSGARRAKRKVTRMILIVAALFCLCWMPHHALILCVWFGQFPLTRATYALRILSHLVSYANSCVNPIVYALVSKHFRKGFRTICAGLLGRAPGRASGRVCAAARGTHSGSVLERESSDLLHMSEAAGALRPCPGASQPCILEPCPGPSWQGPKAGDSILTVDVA
PKD1 kinase inh – inhibitors of human PKD1 kinase, biochemical, fluorescence polarization | Serine/threonine-protein kinase D1 (Homo sapiens), Q15139 | PKD1 kinase fluorescence polarization assay | inhibition, %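 (about 10 µM by stock and volumes)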 | actives 0.056% (n = 200,000) | AID 797, 2007;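 active = inhibition of 50% or more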;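 note: controls were vehicle for no effect and a reference inhibitor for full effect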
INS promoter inh – inhibitors of insulin promoter-driven GFP, primary screen, imaging, TRM-6 cells (human fetal islet line), eGFP reporter, cell count | reporter expression induced with tamoxifen | inhibition, % at 2 µM | actives 0.9% (n = 130,000) | AID 1273, 2008;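 active = inhibition above the mean plus 3 SD, with well images judged a real hit on visual review, cut at about 60% in these data, passing the limit was not always enough; inconclusive = inhibition over the cutoff but images rejected on review; inactive = inhibition not above the cutoff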
RGS16-Gao – modulators of RGS16 binding to Galphao, primary screen, biochemical, human proteins, multiplexed bead flow cytometry; Regulator of G-protein signaling 16 (Homo sapiens) + Guanine nucleotide-binding protein …; actives 0.38% (n = 220,000); binding response (% of control), % at 10 µM; bead-based flow cytometry RGS16-Galphao binding, fluorescence; actives lie on both sides;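 active = below 25% or above 175%, edge rows of some plates excepted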;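 note: Galphao activated by GDP with aluminum fluoride before binding; 100% = wells without compound and 0% = beads without RGS; some results beyond the cut were filed as inactive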
Target sequence (O15492 whole entry, looked up): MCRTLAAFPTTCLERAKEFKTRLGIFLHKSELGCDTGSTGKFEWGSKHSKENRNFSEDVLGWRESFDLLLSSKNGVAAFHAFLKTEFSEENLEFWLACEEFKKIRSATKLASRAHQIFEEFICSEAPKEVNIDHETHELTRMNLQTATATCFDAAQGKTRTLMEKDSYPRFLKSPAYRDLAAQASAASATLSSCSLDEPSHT
Target sequence (P09471 whole entry, looked up): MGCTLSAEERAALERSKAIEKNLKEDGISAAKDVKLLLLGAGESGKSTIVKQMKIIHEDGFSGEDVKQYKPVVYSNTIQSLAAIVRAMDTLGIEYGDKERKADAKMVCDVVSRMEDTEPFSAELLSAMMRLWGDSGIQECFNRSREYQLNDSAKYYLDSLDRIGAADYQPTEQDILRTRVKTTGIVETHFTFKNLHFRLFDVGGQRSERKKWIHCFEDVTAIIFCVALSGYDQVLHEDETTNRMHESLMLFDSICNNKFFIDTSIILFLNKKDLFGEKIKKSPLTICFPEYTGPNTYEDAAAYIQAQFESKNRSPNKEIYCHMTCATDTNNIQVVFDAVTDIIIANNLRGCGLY
HSV augment – enhancers of HSV replication in host cells, fold increase, host cell viability | HSV replication augmentation in cells | maximum fold increase | actives 0.005% (n = 220,000);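 active = peak rise of 1.5-fold or more in the series; inconclusive = self-fluorescent or not available for retest; tested in PC3 cells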;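 note: first round at 10 µM; read as green reporter fluorescence; hits show the peak of a series up to 25 µM; 1 = signal of infected wells without compound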
INS promoter inh cell count – further read-out of INS promoter inh, marked with its call; normalized cell count, %; measured here: cell count, toxicity; reference of the scale not given here;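 cells exposed to compound for 48 h; stained nuclei by imaging scaled within each plate; lower means fewer cells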
HSV augment primary fold – second read-out of HSV augment, no call of its own (marks repeat the call); fold increase; compound at 10 µM; measured here: primary screen fold increase 10 uM; tested in PC3 cells;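 GFP signal in the first replicate; 1 = infected wells without compound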
Active calls of the source: *; i = inactive; ? = inconclusive; . = not tested or not shown.

SMILES | GALR2 agonist | PKD1 kinase inh | INS promoter inh | INS promoter inh cell count | RGS16-Gao | HSV augment | HSV augment primary fold
COc1ccc2nc(N3CCCC3)c(C#N)cc2c1 | 0.1 | -6 | . | . | 101 | i | 0.89
Nc1nc(CSc2ncn[nH]2)nc(Nc2ccc(F)cc2)n1 | . | -1 | . | . | 102 | i | 1.1
CNc1nnc(C(F)(F)F)s1 | . | . | . | . | 102 | i | 1.2
COc1ccc(Nc2ncnc3ccccc23)c(OC)c1 | -2.1 | 1 | 60 | 176 | 129 | . | .
Cc1ccc(SCCC(=O)N/N=C/c2ccncc2)cc1 | . | 0 | . | . | 108 | i | 0.95
O=C(NCCc1ccccc1)c1noc2c1CCCCC2 | -2.5 | -3 | . | . | 105 | . | .
O=c1[nH]c2ccccc2c(=O)n1Cc1ccccc1 | -1.2 | 4 | 41 | 67 | 96 | i | 1.1
O=C1OCC(c2ccccc2)=C1c1ccccc1[N+](=O)[O-] | . | -2 | . | . | 101 | i | 1.1
N#Cc1c(SCc2nc3ccccc3[nH]2)nc2c(c1C(F)(F)F)CCC2 | -1.0 | 5 | -79 | 69 | . | . | .
Cc1nccn1CC(O)Cn1c2ccccc2c2ccccc21 (stereo not given) | -2.7 | 5 | -9 | 75 | 103 | i | 0.94

Brought forward from above: six entries; new compounds follow.
SMILES | GALR2 agonist | PKD1 kinase inh | INS promoter inh | INS promoter inh cell count | RGS16-Gao | HSV augment | HSV augment primary fold
Cc1ccc(SCCC(=O)N/N=C/c2ccncc2)cc1 | . | 0 | . | . | 108 | i | 0.95
O=C(NCCc1ccccc1)c1noc2c1CCCCC2 | -2.5 | -3 | . | . | 105 | . | .
O=c1[nH]c2ccccc2c(=O)n1Cc1ccccc1 | -1.2 | 4 | 41 | 67 | 96 | i | 1.1
O=C1OCC(c2ccccc2)=C1c1ccccc1[N+](=O)[O-] | . | -2 | . | . | 101 | i | 1.1
N#Cc1c(SCc2nc3ccccc3[nH]2)nc2c(c1C(F)(F)F)CCC2 | -1.0 | 5 | -79 | 69 | . | . | .
Cc1nccn1CC(O)Cn1c2ccccc2c2ccccc21 (stereo not given) | -2.7 | 5 | -9 | 75 | 103 | i | 0.94
Cc1cc(C)nc(NC(=O)c2cccc(Cl)c2)n1 | -2.2 | -11 | -89 | 98 | 42 | i | 1
NC(=O)C1CCN(c2ncnc3c(-c4ccccc4)nsc23)CC1 | -0.4 | -9 | 27 | 63 | 105 | i | 1
NNC(=O)COc1ccc(-c2n[nH]c(C(F)(F)F)c2-c2ccc(Br)cc2)c(O)c1 | -0.6 | 1 | 18 | 51 | 167 | i | 0.96
Nc1cccc(-n2nnnc2CN2CCOCC2)c1 | -0.1 | -2 | 33 | 110 | 118 | i | 1
Cc1cccc(-n2c(SCC(=O)N3CC(=O)Nc4ccccc43)nc3ccccc3c2=O)c1C | -1.3 | -8 | -32 | 58 | 96 | i | 0.93
CCC(C)c1ccc(NC(=S)Nc2ccc(OC)c(OC)c2)cc1 (stereo not given) | -1.5 | -3 | . | . | . | i | 0.9
O=C(CSCc1c(F)cccc1Cl)NCc1ccncc1 | . | 3 | . | . | 107 | i | 0.95
Cc1ccc(CNC(=O)c2ccccc2N(C)S(C)(=O)=O)cc1 | . | -9 | . | . | 99 | i | 1.1
CCOC(=O)N/N=C/c1cn(CCCOc2ccccc2)c2ccccc12 | -1.9 | -8 | 2 | 58 | 139 | i | 0.99
CN1CCN(c2ccccc2NC(=O)Cc2ccc(Cl)cc2)CC1 | -2.0 | -2 | -7 | 93 | 100 | i | 1.1
COc1ccc(C2c3ccc(O)cc3Oc3ncn(Cc4ccco4)c(=N)c32)cc1OC (stereo not given) | . | . | . | . | 100 | ? | .
COc1ccccc1C(C)NCC(=O)NCC(=O)Nc1ccc(F)c(F)c1F (stereo not given) | . | -9 | 25 | 147 | 108 | i | 0.91
CCOC(=O)c1cccc(NC(=O)Nc2ccc3c(c2)C(=O)OC3)c1 | . | . | . | . | 104 | i | 0.91
C=CCN(C(=O)Nc1ccc2c(c1)nc(C)n2C)c1ccccc1 | . | . | . | . | 104 | i | 1.1
COc1cccc(C(=O)O/N=C/c2ccc(Sc3ccc(C)cc3)nc2)c1 | -0.5 | 4 | -21 | 98 | 73 | i | 1
O=C(O)c1sccc1S(=O)(=O)c1ccccc1 | -3.4 | -4 | -46 | 120 | 102 | i | 1.2
COc1ccc(OC)c(S(=O)(=O)Nc2ccc(CC(=O)O)cc2)c1 | 0.5 | -2 | 22 | 117 | 102 | i | 0.73
Cc1ccc(OCC(=O)OC(C)CN(C)Cc2ccccc2)cc1 (stereo not given) | 0.0 | -1 | 8 | 68 | 105 | . | .
CC1CN=C(N(C(=O)Nc2ccccc2)C(C)c2ccccc2)S1 (stereo not given) | . | . | . | . | 101 | i | 1.1
CCOC(=O)C1=C(C)NC(C)=C(C(=O)OCC)C1c1nc2ccccc2[nH]1 | -0.1 | -2 | -47 | 93 | . | i | 0.96
CN(CCCN1CCOCC1)Cc1cn(C)nc1-c1ccccc1F | . | -2 | . | . | 94 | i | 1.1
Cc1ccc(SCC(=O)N2CCCC2)cc1 | -0.6 | -9 | . | . | 103 | i | 0.91
COc1cc(OC)c(OC)cc1/C=C/c1cc(C(F)(F)F)[nH]c(=O)n1 | . | -3 | -38 | 114 | 104 | i | 1
CCN(CC(N)=O)S(=O)(=O)c1ccc(F)cc1 | . | -3 | . | . | 99 | i | 1.1
CC(NC(=O)Nc1ccc([N+](=O)[O-])cc1)C(c1cccs1)N1CCCC1 (stereo not given) | 2.1 | 0 | -67 | 140 | 87 | i | 0.96
CNC(=S)NN(c1ccccc1)c1ccccc1 | -1.8 | -1 | -25 | 280 | 99 | i | 1
CCOC(=O)N1CCN(C(=O)c2ccc(NC(=O)c3ccc(C)cc3)cc2)CC1 | 1.1 | 4 | -417 | 74 | 108 | i | 0.91
C[C@H](NC(=O)c1nc[nH]c1C(=O)N1CCc2ccccc2C1)C(=O)OCc1ccccc1 | . | . | . | . | 99 | i | 0.82
O=C(Cc1cccs1)Nc1nc(-c2ccccc2)cs1 | 0.2 | -7 | . | . | 108 | i | 0.93
O=C(Nc1ccccc1F)c1ccc2nc(N3C(=O)CCC3=O)sc2c1 | -1.6 | -2 | 44 | 155 | 100 | i | 0.89
Cc1cc(C)c2c(=O)cc(C(F)F)oc2c1 | -0.1 | -5 | -41 | 109 | 106 | i | 1
CCc1ccc(NC(=O)COC(=O)/C=C/c2c(C)nn(C3CCS(=O)(=O)C3)c2Cl)cc1 (stereo not given) | . | 3 | -29 | 91 | 106 | i | 1
CC(SC(=S)N1CCOCC1)C(=O)O (stereo not given) | -4.1 | 0 | 9 | 143 | 76 | i | 0.9
O=[N+]([O-])c1c(Nc2ccc(O)cc2)cc(N2CCOCC2)c2nonc12 | -2.5 | -4 | -10 | 62 | 77 | i | 1
COC(=O)C(C(=O)OC)c1ccc(N)cc1 | . | 0 | . | . | 105 | i | 1
Cc1ccc(O)c(C(CC(=O)N2CCCC2)c2ccccc2)c1 (stereo not given) | -0.8 | 12 | -69 | 76 | 96 | i | 0.87
O=C(O)CCC(=O)N1c2ccccc2NC2=C(C(=O)CC(c3ccc(F)cc3)C2)C1c1ccc([N+](=O)[O-])o1 (stereo not given) | . | 3 | . | . | 107 | i | 1.1
CN1C(=O)C2(NCCc3c2[nH]c2ccccc32)c2ccccc21 (stereo not given) | -1.2 | 3 | 15 | 50 | 107 | i | 0.96
CCC/C(O)=C1\C(=O)CC(C)(C)CC1=Nc1ccccc1OC | . | . | . | . | 103 | i | 1
c1ccc(-n2ncc3c2ncn2cnnc32)cc1 | -1.8 | -4 | -3 | 76 | 143 | i | 0.94
Cc1ccc(C(C(=O)NCc2ccco2)N(CC2CCCO2)C(=O)Cn2nnc3ccccc32)cc1 (stereo not given) | -0.3 | 3 | . | . | 100 | i | 0.86
COc1cc(NC(=O)Cc2ccc(Cl)cc2)ccc1NC(=O)c1ccco1 | -0.7 | -18 | . | . | 99 | i | 0.73
CC1CCCCC1NC(=O)COC(=O)Cc1ccc(Br)cc1 (stereo not given) | . | -7 | 8 | 114 | 113 | i | 0.96
O=C(c1cccc(Cl)c1)N1CCN(C(=O)c2ccccc2F)CC1 | -1.4 | -1 | 42 | 112 | 100 | i | 0.79
O=C(NCc1ccc(Cl)cc1)C1CCN(c2cnccn2)CC1 | . | -6 | . | . | 89 | i | 0.86
CCc1nnc(NC(=O)Cn2nc(-c3ccccc3OC)ccc2=O)s1 | -2.0 | 4 | -37 | 121 | 101 | i | 0.79
Fc1cccc(Nc2nc(Cl)nc(Cl)n2)c1 | . | 5 | . | . | 101 | i | 1.1
Cc1cc([N+](=O)[O-])nn1CC(=O)Nc1ccccn1 | . | -4 | 25 | 77 | 107 | i | 1.1
N#Cc1nc(-c2ccc(Cl)cc2)oc1N1CCCCC1 | 0.6 | 14 | . | . | 104 | i | 0.92
CCOC(=O)CNC(=O)C1CCCN(c2ncccn2)C1 (stereo not given) | -1.3 | -9 | . | . | 101 | i | 0.94
Other structures:
SMILES | GALR2 agonist | PKD1 kinase inh | INS promoter inh | INS promoter inh cell count | RGS16-Gao | HSV augment | HSV augment primary fold
CCOC(=O)N1CCC(NC(=O)c2ccc3c(c2)N(Cc2ccc(C)cc2)CCS3)CC1 | -0.5 | -1 | . | . | 93 | i | 0.95
CCCCN(C)C1CCN(C(=S)Nc2cccc(SC)c2)CC1 | . | 3 | . | . | 94 | i | 0.92
CC1=C(C)C(=O)C(N2CCOCC2)=CC1=O | -1.2 | -6 | . | . | 94 | i | 1
Fc1ccccc1-n1[nH]nnc1=S | -1.3 | 2 | -20 | 135 | 111 | i | 0.85
Cc1cc(C)c(S(=O)(=O)Nn2cnnc2)c(C)c1 | . | 4 | 57 | 117 | 107 | i | 1
O=C(Nc1ccccc1C(F)(F)F)c1ccc(F)c(S(=O)(=O)N2CCOCC2)c1 | -0.6 | -6 | . | . | 100 | i | 1.1
N=c1ccn2c(n1)OC1C(O)C(CO)OC12 (stereo not given) | . | . | . | . | 90 | i | 0.63
COc1ccc(N2C(=O)C3CCCN3C2c2ccccc2)cc1Cl (stereo not given) | -1.9 | -14 | 47 | 43 | 110 | i | 0.83
CCCCn1c(=O)nc2n(-c3ccccc3C)c3ccccc3cc-2c1=O | 1.9 | 0 | . | . | 95 | i | 1
COc1ccc2ccccc2c1CNC(=O)CC1C(=O)NCCN1CC(C)C (stereo not given) | . | -8 | . | . | 109 | i | 1.2
O=C(COC(=O)c1cccc(S(=O)(=O)NCc2ccccc2)c1)NCC1CCCO1 (stereo not given) | . | 3 | . | . | 96 | i | 0.98
CCc1cccc2c1NC1(CCCC1)CC2C (stereo not given) | . | . | . | . | 95 | i | 1.1
Cc1ccc(-c2nc(N)sc2C)cc1 | . | -6 | . | . | 101 | i | 0.95
O=C(CCN1C(=O)C2C3C=CC(C3)C2C1=O)NCC1CCCO1 (stereo not given) | -1.7 | -13 | 46 | 112 | 98 | i | 0.83
COc1ccc(CCNC(=O)/C=C/c2ccc(C)cc2)cc1OC | -1.6 | 1 | 6 | 128 | 103 | i | 0.95
Nc1nonc1/C(=N/O)N1CCCC1 | -3.8 | -2 | -42 | 98 | 101 | i | 1
Cc1[nH]c2c(C(=O)N3CCCC(CCC(=O)NCc4ccccc4F)C3)cccc2c1C (stereo not given) | . | 0 | . | . | 102 | i | 1.1
C/C=C/c1ccc(OCCCCNCc2ccco2)c(OC)c1 | . | 1 | 7 | 76 | 157 | i | 0.94
C=CCN1C2CCCC1CC(NC(=S)Nc1ccc(Cl)cc1)C2 (stereo not given) | . | -4 | . | . | 109 | i | 0.75
CCC(=O)Oc1ccc2c(C)c(Cl)c(=O)oc2c1 | 4.6 | 2 | . | . | 143 | i | 1
COc1ccc(OCCCSc2ncccn2)cc1 | -1.3 | -6 | -4 | 80 | 101 | i | 0.96
COc1ccc(-c2coc3cc(OC(=O)N4CCOCC4)ccc3c2=O)cc1 | . | . | . | . | 100 | i | 0.94
COCCNC(=O)COc1ccc(C)cc1C | -1.2 | -1 | -35 | 100 | 102 | i | 0.84
CCOC(=O)c1nnc2cc(-c3ccc(Br)cc3)nn2c1C | -2.8 | -11 | -14 | 120 | 103 | i | 0.94
